Mtb hypoxia inh: inhibitors of hypoxia-regulated fluorescent reporter in Mycobacterium tuberculosis | M. tuberculosis hypoxia-regulated fluorescent reporter, fluorescence | fluorescence inhibition, % (concentration not given with the values) | 300,000 compounds, 0.1% hits;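 active = 35 to 45% if threefold the growth effect, above 45% if 1.5-fold the growth effect; inactive = the rest, general growth blockers included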;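 also: wells of about 50 µL received 100 nL stock; 0% = vehicle wells and 100% = reference inhibitor wells; whole bacteria with a GFP reporter of the hypoxia response; strong numbers were not always called active; many hits fall short of the cut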
Autofluor counter: compound fluorescence in toxin protease inhibitor counterscreen; fluorescence intensity (test concentration not listed); AID 624483; 360,000 compounds, 3.1% hits; compound autofluorescence counterscreen, microsphere flow cytometry; active compounds read high;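 active = at least 3 SD above the mean of all compounds, about 16000 in these data; inconclusive = too few beads counted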;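 also: 100 nL of 1 mM stock went into each well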
Sa ugtP lethal: compounds lethal to S. aureus RN4220 ugtP deletion mutant; OD600 growth, 16 h; some inactives read as strong as hits; AID 1259309; 330,000 compounds, 0.54% hits; growth inhibition, % (no concentration beside the values);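 active = z-score under -3 and OD600 up to 0.15 on both plates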;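 also: plate controls were untreated wells for no effect and antibiotic for full effect; wells of about 80 µL received 100 nL stock; the first replicate is given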
Sa RN4220 lethal: kills Staphylococcus aureus RN4220 | inhibition, % (concentration not given with the values) | S. aureus RN4220 growth, OD600, 16 h | 330,000 compounds, 0.33% hits;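 active = z-score of -3 or lower and OD600 up to 0.18 on both plates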;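 also: plate controls were untreated cells for no effect and reference antibiotic for full effect; stock transfer was 100 nL into about 80 µL; one replicate is shown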
PrP UTR inh: suppresses PrP 5' UTR mRNA reporter expression; 340,000 compounds, 0.35% hits; cell-based PrP 5' UTR mRNA reporter, plate reader; inhibition, % (concentration not given with the values); AID 488862;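 active = every replicate at 50% or more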;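 also: 0 = median of the neutral control wells; tested in H4 reporter cells; numbers are from one replicate; inactives centre near -14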
BJeLR lethal: BJeLR cell viability loss | BJeLR (HRASV12) viability, CellTiter-Glo ATP luminescence, 48 h; reference of the scale not given here | inhibition, % (no concentration beside the values) | 300,000 compounds, 0.17% hits | AID 1554;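 active = replicate mean above 50%; inconclusive = above 50% but judged a plate artefact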;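 also: 50 nL library stock added to about 25 µL; numbers are from one replicate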
Mtb hypoxia inh growth: further read-out of Mtb hypoxia inh, marked with its call; growth inhibition, %; measured here: M. tuberculosis growth (absorbance);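 0% = vehicle and 100% = reference antibiotic; read after six days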
The depositor's hits bear a star; u = inconclusive; x = no result given.

SMILES	Mtb hypoxia inh	Mtb hypoxia inh growth	Autofluor counter	Sa ugtP lethal	Sa RN4220 lethal	PrP UTR inh	BJeLR lethal
COc1ccc(/C=N/NC(=O)C2C(=O)NCC2c2ccccc2)c(OC)c1 (stereo not given)	x	x	2721	x	x	-5	-10
CCOc1ccc(N(C)c2ccc(/C=C3/SC(=S)NC3=O)cc2)cc1	x	x	7424	x	x	-15	6
O=C(CN(Cc1cccs1)C(=O)CSc1nnc(COc2ccccc2)o1)NC1CCCC1	-8	-8	8855	-2	-3.1	2	4
NC(=O)CCS(=O)(=O)CCN1CCN(S(=O)(=O)c2ccc3c(c2)CCC3)CC1	9	4	5886	5	6.7	-23	x
CCN(CC)CCN1C(=O)C(O)=C(C(=O)c2cc3cccc(OC)c3o2)C1c1cccs1 (stereo not given)	19	12	x	10	2.9	x	0
COc1ccccc1CNC(=O)/C=C/C(=O)O	-4	2	4529	0	-0.5	-1	7
COc1ccccc1N1CCN(N=C/C(Br)=C/c2ccccc2)CC1	14	5	x	-4	44	x	x
CN(CC(=O)Nc1ccc(F)cc1)C(=O)COC(=O)Cc1c(F)cccc1Cl	-6	1	6280	4	-0.1	-9	-2
CCCCCCCC(=O)N1c2ccccc2NC(=O)C1CC(=O)Nc1ccc(C(=O)O)cc1 (stereo not given)	6	-4	4521	-3	-2.3	x	4
CCC(C)Nc1ncnc2c1cnn2Cc1ccc(Cl)cc1 (stereo not given)	7	12	5939	15	-9.3	-9	4
O=S(=O)(Nc1ccc(Cc2ccncc2)cc1)c1ccc(Cl)cc1	0	2	4720	2	1.8	-16	0
O=c1cc(C23CC4CC(CC(C4)C2)C3)[nH][nH]1	4	7	9639	-8	8.6	-39	-8
COc1ccc(OC)c(C=NNC(=O)CC(=O)NCCc2ccccc2)c1	3	-1	x	6	0.5	x	x
C=CCN1C(=O)C(CC(=O)Nc2ccccc2F)SC1=Nc1nccs1 (stereo not given)	6	3	x	2	7.3	x	x
Cc1ccc(C)c(CN2CCCN(C(=O)Cn3ncc4c3-c3ccccc3OC4)C2)c1	x	x	5791	5	5.0	-10	-5
COc1cc(O)c(C(CCN2CCCCC2)c2cc(OC)c(OC)c(OC)c2)c(OC)c1 (stereo not given)	25	5	3058	0	1.6	-6	0
Cc1cc(C)cc(OCC(=O)Nc2cnn(CCCC(=O)O)c2)c1	3	12	5136	0	2.0	11	-3
COc1ccc(-c2[nH]c(-c3cc(OC)c4c(c3)OCO4)nc2-c2ccccc2)cc1	10	11	2140	25	0.5	-2	16
COC(=O)N1CCN(c2ccc(C)c(C)c2)CC1	8	-1	x	7	0.6	x	-7
Cc1onc(-c2ccccc2)c1-c1nnc(CN2CCN(S(=O)(=O)c3ccccc3F)CC2)o1	9	6	5319	3	2.3	-12	x
CCC(NS(=O)(=O)c1ccc(C)cc1)C(=O)N1CCOCCOCCOCC1 (stereo not given)	1	7	3498	3	1.9	-4	-5
C=CC[C@@H](CC(=O)N[C@@H](CO)Cc1ccccc1)C(=O)N[C@@H](COC(=O)[C@@H](CC=C)CC(=O)OC(C)(C)C)Cc1c[nH]c2ccccc12	-7	8	3685	-7	4.0	1	x
O=c1oc2ccccc2c(Nc2cccc3cccnc23)c1[N+](=O)[O-]	10	4	2390	6	1.7	-22	4
CCOc1ccc(CC(=O)NN=Cc2sccc2C)cc1	14	6	x	7	1.8	x	x
CN(CC(=O)Nc1ccccc1Cl)C(=O)COC(=O)c1ccc([N+](=O)[O-])s1	16	1	2992	8	16	-6	x
SMILES	Mtb hypoxia inh	Mtb hypoxia inh growth	Autofluor counter	Sa ugtP lethal	Sa RN4220 lethal	PrP UTR inh	BJeLR lethal
C#CCOCCOCCOCCNc1nc(N2CCN(C(=O)C(CCC(=O)O)n3cc(C(N)CCCCN)nn3)CC2)nc(N2CCN(C(=O)C(CCCN=C(N)N)n3cc(C(N)C(C)CC)nn3)CC2)n1 (stereo not given)	-2	2	x	-1	7.0	x	x
CC(=O)N/C(=C\c1ccccc1)C(=O)N1CCOCC1	5	7	1981	2	1.4	-2	-2
O=C(O)COc1ccccc1C=NNC(=O)c1ccc(F)cc1	2	2	x	3	6.1	x	x
Cn1nnnc1SCC(=O)Nc1ccccc1N1CCOCC1	x	x	4205	1	1.1	-12	7
CCNC(=O)COC(=O)c1cc(-c2ccco2)nc2ccccc12	2	7	5018	1	4.9	-5	-1
Cc1nc2ccc(NC(=O)c3ccc(Cl)c(NC(=O)c4cccs4)c3)cc2s1	x	x	3626	-30	0.8	-13	3
COCCNc1oc(-c2ccccc2Cl)nc1C#N	7	2	5650	10	3.1	-21	-4
CN(C)c1nccc(Nc2ccccc2)c1C#N	x	x	4452	-6	2.5	-10	-16
N#Cc1ccc(-c2ccc(F)cc2)nc1SCC(=O)Nc1sc2c(c1C#N)CCC2	3	4	3958	-18	5.8	-26	7
CC1CC(=O)Nc2ccccc2N1C(=O)CN1CCN(C=O)CC1 (stereo not given)	12	6	2133	6	2.0	-36	6
COc1cc2[nH]c(=O)n(CCC(=O)N3CCc4ccccc4C3)c(=O)c2cc1OC	0	-5	4016	0	1.8	11	2
CCOc1ccc(NC(=O)NC(C)c2ccc3c(c2)OCO3)cc1 (stereo not given)	3	15	5777	5	5.8	-5	-1
COc1ccc(OC)c(/C=N/NC(=O)CSc2nnc(C)n2-c2ccccc2)c1	x	x	2031	x	x	1	-1
CCN(CC)c1cc(Cl)c2nonc2c1N	9	-5	3748	18	5.3	-8	-7
O=C1c2oc3ccccc3c(=O)c2C(c2cccnc2)N1CCCN1CCOCC1 (stereo not given)	16	12	2888	-6	-9.7	-23	-6
CCOc1ccc(NC(=S)NNC(=O)CC(C)O)cc1 (stereo not given)	-9	6	4334	1	3.5	-33	0
C=CCOc1ccc(C(=O)c2ccccc2)c(OCC(=O)NC2(C#N)CCCC2)c1	8	4	4422	20	5.3	-1	-11
CCCn1c(=O)c2ccccc2n2c(Sc3nnnn3-c3ccccc3)nnc12	1	6	3753	3	0.0	-3	-12
Cc1ccc(NC(=O)COC(=O)C(NS(=O)(=O)c2ccc(Cl)cc2)C(C)O)cc1 (stereo not given)	7	7	2118	4	6.7	-21	-13
CCC(=O)Nc1cccc(C2=NOC3(C2)C[C@@H](C(N)=O)N(C(=O)c2ccc(OC)cc2)C3)c1 (stereo not given in full)	x	x	3784	x	x	-11	-7
COCc1cc(C)nc(N2CCc3ccccc32)c1C#N	15	3	3715	10	6.9	1	0
COc1ccc(C(=O)Nc2ccc(Oc3nc(C)nc4sc(-c5ccccc5)cc34)cc2)cc1OC	-7	-9	2088	-6	2.7	-16	3
O=C(C(=O)N1CCOCC1)c1cn(Cc2ccccc2)c2ccccc12	8	4	3122	3	13	-19	-1
Cc1cccc(Oc2ccc(NC(=O)C3=CC=CN4CCS(=O)(=O)N=C34)cc2)c1	0	7	u	12	-0.6	-9	x
CC(=O)c1ccc(NC(=O)CSc2nnc3ccc(-c4ccccn4)nn23)cc1	-8	-8	4071	2	4.0	-2	3
SMILES	Mtb hypoxia inh	Mtb hypoxia inh growth	Autofluor counter	Sa ugtP lethal	Sa RN4220 lethal	PrP UTR inh	BJeLR lethal
Cc1ccc(NC(=O)CN2C(=O)COc3ccc(S(=O)(=O)N4CCOCC4)cc32)cc1N(C)C	5	4	5403	1	-2.1	-4	-8
CCOc1cc(/C=C2/SC(=S)N(Cc3ccccc3)C2=O)ccc1O	12	2	x	-3	6.1	-23	-3
Cc1cc2ccccn2c1C(=O)c1nc(N2CCOCC2)ncc1Cl	10	4	8376	19	-1.4	-20	-16
CC(C(=O)NNS(=O)(=O)c1cccc(C(F)(F)F)c1)n1nnc(N2CCOCC2)n1 (stereo not given)	-3	12	4481	-1	-1.5	4	-5
O=C(CSc1nnc(-c2ccccc2Cl)o1)Nc1ccccn1	14	1	4297	-2	11	7	19
Cc1c(/C=C(\C#N)c2nn(-c3ccccc3)c(N)c2C#N)c2ccccc2n1Cc1ccc(F)cc1	-3	-5	8125	-15	-0.8	x	6
CCOC(=O)c1c[nH]c(=S)n1C	1	-5	4243	6	3.8	-4	-2
COc1ccc2c(c1)-c1nc(N=Cc3ccc(O)c(OC)c3)sc1CC2	8	5	x	-11	9.1	x	x
CCCN(CCC)C(=O)c1oc2ccccc2c1NC(=O)Cc1cccc(OC)c1	3	-3	2803	2	-1.9	-29	-10
c1ccc(-n2ncc3c(NCCN4CCCCC4)ncnc32)cc1	x	x	3137	-2	-0.5	-14	-14
CC(C)CNC(=O)C(=O)NN=Cc1cccs1	-2	8	x	1	0.4	x	x
O=C(O)CCCCCNC(=O)c1ccc(C(=O)NCCCCCC(=O)O)cc1	15	11	4778	2	4.1	1	5
CC(=O)NC1=NC(=O)CS1	2	3	21990*	6	2.8	-20	7
CCC1=[N+](C)CCn2c(C)ccc21	-1	1	3313	-2	-19	-23	-1
CCOC(=O)NC(=S)Nc1ccc(OC)cc1	8	8	4625	13	3.3	-23	5
CC(=O)Nc1cc2c(cc1C(C)=O)OCCO2	x	x	2345	2	-2.6	-11	-2
O=C(NNc1ccc([N+](=O)[O-])cc1)C1C2CCCCC21 (stereo not given)	5	-1	2809	-3	-4.0	-23	-2
O=C(O)c1ccc(/C=N/Nc2ncc(Cl)cc2Cl)cc1	x	x	4154	x	x	-21	1
O=C(COc1nc2ccccc2nc1N1CCOCC1)Nc1ccc(S(=O)(=O)N2CCCC2)cc1	-10	12	2672	-10	6.2	-9	4
CC(C)CC(=O)N=Nc1c(O)[nH]c2ccccc12	7	9	2554	7	1.4	-14	-7
COc1cc(NC(=O)c2cc(C(C)C)on2)c(OC)cc1Cl	-1	-2	7001	20	0.3	-13	-2
Cc1cc(C)c(S(=O)(=O)N2CCCCC2CCNC(=O)C(=O)NCc2cccnc2)c(C)c1 (stereo not given)	x	x	u	x	x	-1	-1
C#CCCOC(=O)N1C2=NC(C(=O)OC)=C(C(=O)OC)[C@@H]3N(C)c4ccccc4[C@]23C[C@H]1CO	x	x	3989	x	x	-11	-8
COc1ccc(OCCC(=O)OCC(=O)Nc2ccc(Br)cc2)cc1	7	14	3608	-3	3.0	-8	0
O=C(Nc1cccc(-c2nnc(-c3ccccc3)o2)c1)c1ccco1	4	3	3106	-10	8.2	-32	3
SMILES	Mtb hypoxia inh	Mtb hypoxia inh growth	Autofluor counter	Sa ugtP lethal	Sa RN4220 lethal	PrP UTR inh	BJeLR lethal
CCCCN(C)C(=O)c1nc2ccccn2c1CNC1CCC1	3	6	2093	0	3.9	-13	-1
CC1(C)Cc2ccccc2-c2nnc(-c3ccc4ccccc4n3)n21	18	13	2547	-7	-9.6	-11	1
CC(NC(=O)c1ccco1)C(=O)Nc1nccs1 (stereo not given)	7	8	3649	0	1.5	-11	x
C=CCNC(=S)NNC(=O)c1ccccc1OCC	11	4	4315	4	-0.5	-10	-8
COCCCNC(=O)C1CCN(S(=O)(=O)c2c(C)noc2/C=C\c2ccc(OC)cc2)CC1	17	4	u	-7	3.2	-19	8
CCN1CCN(c2nc(-c3ccccc3Cl)nc3ccccc23)CC1	3	4	4242	0	3.1	-18	8
O=C(COC(=O)Cn1cc(C(F)(F)F)ccc1=O)Nc1ccccc1	0	4	8763	1	2.4	-5	x
Cc1ccc2cc(C#N)c(NCCNC(=O)C3CC3)nc2c1C	-6	7	5739	-3	1.7	-16	-2
Cc1cc(Cl)ccc1NC(=O)CN1C(=O)CSc2ccc(S(=O)(=O)N3CCOCC3)cc21	2	5	5337	7	0.0	-11	21
COc1ccc(CNC(=O)[C@@H](NC(=O)C2CCN(C(=O)[C@@H](N)CC(C)C)CC2)C(C)C)cc1	x	x	5494	11	-0.3	-15	0
CCN(C(=O)COC(=O)CNC(=O)c1ccccc1C)C1=CCCCC1	6	-6	5943	13	2.7	-14	x
COc1ccc(-n2c(SCC(=O)NN=C(C)c3cccnc3)nc3ccccc3c2=O)cc1	-9	-5	x	2	2.6	x	x

By substructure, those above with a CF3 group.
SMILES	Mtb hypoxia inh	Mtb hypoxia inh growth	Autofluor counter	Sa ugtP lethal	Sa RN4220 lethal	PrP UTR inh	BJeLR lethal
CC(C(=O)NNS(=O)(=O)c1cccc(C(F)(F)F)c1)n1nnc(N2CCOCC2)n1 (stereo not given)	-3	12	4481	-1	-1.5	4	-5
O=C(COC(=O)Cn1cc(C(F)(F)F)ccc1=O)Nc1ccccc1	0	4	8763	1	2.4	-5	x
